# TAR Tat displ = HIV-1 TAR-Tat binding disruption | HIV-1 TAR RNA, Tat peptide displacement FRET; active compounds read high | z-score (no concentration beside the values) | 0.6% of 100,000 active | AID 1259389;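 note: score is relative to mean and SD of negative controls; some compounds called inactive have numbers as strong as hits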
# CDC25B CDK2 inh = human CDC25B-CDK2/CyclinA binding inhibition | z-score (test concentration not listed) | HTRF CDC25B-CDK2/CyclinA binding, anti-His/anti-Flag; active compounds read high | P30305+P24941 | 0.72% of 94,000 active;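 note: score is relative to mean and SD of negative controls; strong numbers were not always called active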
# Numbers without * were called inactive; . = not tested or not shown.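 Rule for the calls: active = z-score from 3 up in half or more of its runs; inactive = the rest.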
SMILES,TAR Tat displ,CDC25B CDK2 inh
Cc1ccc(NC(=O)Nc2c(C)n(C)n(-c3ccccc3)c2=O)cc1Cl,2.14,-1.17
O=C(Nc1sc2c(c1C(=O)N1CCOCC1)CCC2)c1ccccc1Cl,.,0.39
Cn1nnnc1SCCCNCc1cccs1,-0.17,-0.44
O=C(O)C1=CS[C@@H]2/C(=C\c3cnc4n3CCOC4)C(=O)N12,.,0.03
CC(=O)N1c2ccc(S(=O)(=O)N3CCCCC3)cc2CC1C(=O)NC1CC1 (configuration not stated),-0.91,.
Clc1cccc(CSc2nc3ccncc3n2Cc2ccccn2)c1,0.42,0.26
CCC1CN(C(=O)Nc2cccc(Cl)c2)c2ccccc2S1 (configuration not stated),1.69,.
COc1ccccc1N1CCN([C@H]2CS(=O)(=O)C[C@@H]2S(=O)(=O)c2ccc(Cl)cc2)CC1,2.05,-1.85
C[n+]1c2ccccc2nc2ccc(NCCc3cnc[nH]3)cc21,-3.72,0.04
Cc1[nH]cnc1C(=O)N/N=C/c1c(Cl)cccc1Cl,.,-1.28
O=C(Nc1ccc(-c2nc3ccccc3o2)cc1)c1ccc([N+](=O)[O-])o1,-0.07,-1.21
Cc1ccc(C2CC(=O)N3CN(C4CCCC4)CSC3=C2C#N)cc1 (configuration not stated),0.26,0.66
COc1cc(C2Nc3ccc4ccccc4c3C3=C2C(=O)CC(C)(C)C3)cc(OC)c1OC(C)=O (configuration not stated),.,-1.17
Cc1oc2ncnc(N3CCOCC3)c2c1C(=O)N1CCCCC1c1cccnc1 (configuration not stated),0.24,.
O=C1CC(C(F)(F)C(F)(F)C(F)(F)C(F)(F)F)=Nc2ccccc2N1,.,-4.48
CCOC(=O)c1c(C)oc2ncnc(Nc3ccc(F)cc3F)c12,-0.19,.
CC1CCCC(C)N1CCCN1C(=O)c2cc3occc3n2CC1(C)C(=O)NC1CCCCC1 (configuration not stated),0.13,.
Oc1ccccc1-c1nc2cnccn2c1Nc1ccc(Cl)cc1,1.24,0.06
Cc1ccc(C)n1-c1nnc(N2CCC(C(=O)NCCN3CCCC3)CC2)s1,-0.67,1.04
CN1CCN(CCNC(=O)c2cc3c(s2)-c2ccc(Cl)cc2S(=O)(=O)C3)CC1,-0.63,-0.65
CCCS(=O)(=O)Nc1cccc(-c2ccc(S(C)(=O)=O)nn2)c1,-0.8,.
Clc1ccc2c(c1)NC(c1cccnc1)=NC(c1cccs1)=N2,-1.61,-0.41
CCOC(=O)COc1ccc2c(c1)c(C(=O)OCC)c(C)n2C,.,-0.73
CCCCNc1nc2ccccc2c2nc(-c3cccnc3)nn12,0.25,-0.69
Cc1c(C(=O)N2CCCC2)c(S(=O)(=O)N2CCC(C)CC2)c(C)n1C,0.31,.
COC(=O)C1C(=O)C2=C(CC1C)NC(C)=C(C(=O)OCc1ccc(OC)cc1)C2c1cccs1 (configuration not stated),2.78,-0.82
O=C(O)C1=CC(c2cccc(Cl)c2)n2ncnc2N1 (configuration not stated),1.57,.
O=S(=O)(c1ccccc1)c1nnn2c1nc(N1CCOCC1)c1cc(Cl)ccc12,1.47,-1.66
O=C(NCc1ccc2c(c1)OCO2)c1csc2c1CCCC2,-0.86,-2.44
Cc1ccc(C)c(N=Cc2cc(Cl)cc(Cl)c2O)c1,.,0.1
COc1ccc(/C=C2\OC(c3ccc(OC)c(OC)c3)=Cc3cc(OC)c(OC)cc32)cc1OC,0.89,-0.52
CC1CCCC(NC(=O)CN2C(=O)CSc3ccc(S(=O)(=O)N4CCCCC4)cc32)C1C (configuration not stated),0.11,.
O=C(O)c1c(-n2cnnn2)sc2c1CCCC2,1.15,-1.65
c1csc(C2=NC(c3ccc(N4CCOCC4)cc3)=Nc3ccccc3N2)c1,1.14,-0.12
CCC(=O)N1CCc2cc(S(=O)(=O)CCC(=O)N3CCc4ccccc4C3)ccc21,.,-1.93
Cc1c(C)c(C)c(C(=O)CCc2cccc(NC(=O)CCC(=O)O)c2)c(C)c1C,.,-1.13
c1cncc(-c2nc(NC3CCCCC3)c3ccccc3n2)c1,.,-1.41
CC1CC(C)CN(CCCNC(=O)C2=Cc3sc4c(c3CS2)CCCC4)C1 (configuration not stated),-2.09,.
Cc1ccc(-c2ccc(=O)n(Cc3cc(=O)n4ccccc4n3)n2)cc1,2.35,-1.54
N#Cc1nc(-c2ccc(COc3ccccc3)o2)oc1N1CCCCC1,-0.44,0.36

# Filtered by structure, the entries above with a COOH group.
SMILES,TAR Tat displ,CDC25B CDK2 inh
O=C(O)C1=CS[C@@H]2/C(=C\c3cnc4n3CCOC4)C(=O)N12,.,0.03
O=C(O)C1=CC(c2cccc(Cl)c2)n2ncnc2N1 (configuration not stated),1.57,.
O=C(O)c1c(-n2cnnn2)sc2c1CCCC2,1.15,-1.65
Cc1c(C)c(C)c(C(=O)CCc2cccc(NC(=O)CCC(=O)O)c2)c(C)c1C,.,-1.13

# Part of the list above, with bars between the fields:
Structure | TAR Tat displ | CDC25B CDK2 inh
CCOC(=O)COc1ccc2c(c1)c(C(=O)OCC)c(C)n2C | . | -0.73
CCCCNc1nc2ccccc2c2nc(-c3cccnc3)nn12 | 0.25 | -0.69
Cc1c(C(=O)N2CCCC2)c(S(=O)(=O)N2CCC(C)CC2)c(C)n1C | 0.31 | .
COC(=O)C1C(=O)C2=C(CC1C)NC(C)=C(C(=O)OCc1ccc(OC)cc1)C2c1cccs1 (configuration not stated) | 2.78 | -0.82
O=C(O)C1=CC(c2cccc(Cl)c2)n2ncnc2N1 (configuration not stated) | 1.57 | .

# Going on with the list:
SMILES,TAR Tat displ,CDC25B CDK2 inh
O=C(CCc1ccccc1)Nc1nnc(SCc2nc3ccccc3[nH]c2=O)s1,-7.5,.
Cc1cc2n(n1)CCC(=O)N2CCCC(=O)NC1CCC(C)CC1 (configuration not stated),1.11,.
Cc1nc(C)c(C(=O)N2CCN(S(=O)(=O)c3ccc4c(c3)NC(=O)CO4)CC2)s1,0.56,.
O=S(=O)(c1cccc(F)c1)N1CCC(Oc2ccc(-n3cnnn3)cc2)CC1,0.03,0.53
O=C(CN1C(=O)c2ccccc2S1(=O)=O)Nc1ccc(N2CCOCC2)cc1,.,0.27
CNc1nc(Nc2cccc(C)c2)nc(N)c1[N+](=O)[O-],1.35,.
O=S(=O)(Nc1cccc(-c2nc(-c3ccccc3)co2)c1)c1ccc(Cl)cc1,1.35,.
O=C(NCc1ccccc1)N1CCCC1c1ccco1 (configuration not stated),0.35,1.23
CCOC(=O)c1cc(S(=O)(=O)N(C)CC(=O)NCC2CCCO2)cn1C (configuration not stated),0.11,.
Fc1ccccc1-c1noc(NCc2ccccc2Cl)n1,-1.33,.
Cc1ccc(-c2nc(SCC(=O)OC(C)C)[nH]c(=O)c2C#N)cc1,0.88,-1.07
Nc1ccc2nc(-c3ccc(O)cc3)sc2c1,1.78,-1.35
Cc1nnc(NC(=O)CSc2ccc3nnc(-c4ccccc4)n3n2)s1,.,-1.88
COC(=O)c1ccsc1NC(=O)CN1c2cccc3cccc(c23)S1(=O)=O,0.14,-0.92
Cc1nn(CC(=O)NCC2CCCO2)c(=O)c2c1sc1ccccc12 (configuration not stated),2.28,-0.46
CCc1nc(-c2csc(S(=O)(=O)Nc3cccc(C)c3C)c2)no1,0.15,.
Cc1cccc(NS(=O)(=O)c2ccc(F)cc2)n1,0.87,1.01
CC1CCN(C(=O)CSc2nc(-c3ccco3)nc3cc(=O)[nH]n23)CC1,9.23*,.
COc1cccc(OC(=O)CSc2nnc(-c3cccc(OC)c3)o2)c1,1.13,-0.43
CCc1cc2c(N3CCC(C(N)=O)(N4CCCCC4)CC3)ncnc2s1,1.3,.

# Retrieved by structure from the entries so far:
SMILES,TAR Tat displ,CDC25B CDK2 inh
COc1cc(C2Nc3ccc4ccccc4c3C3=C2C(=O)CC(C)(C)C3)cc(OC)c1OC(C)=O (configuration not stated),.,-1.17
COc1ccccc1N1CCN([C@H]2CS(=O)(=O)C[C@@H]2S(=O)(=O)c2ccc(Cl)cc2)CC1,2.05,-1.85
Cc1nc(C)c(C(=O)N2CCN(S(=O)(=O)c3ccc4c(c3)NC(=O)CO4)CC2)s1,0.56,.
O=C(CCc1ccccc1)Nc1nnc(SCc2nc3ccccc3[nH]c2=O)s1,-7.5,.
CNc1nc(Nc2cccc(C)c2)nc(N)c1[N+](=O)[O-],1.35,.
N#Cc1nc(-c2ccc(COc3ccccc3)o2)oc1N1CCCCC1,-0.44,0.36

# Other entries
SMILES,TAR Tat displ,CDC25B CDK2 inh
Cc1nc2c(C)cccn2c(=O)c1NC(=O)COc1ccc(Cl)cc1,0.61,.
CCS(=O)(=O)N1CCCc2ccc(NS(=O)(=O)c3cc(F)ccc3F)cc21,-0.35,.
CCOc1ccc(S(=O)(=O)Nc2ccc3c(c2)oc(=O)n3C)cc1,-0.33,.
Cn1cnc2c(=O)oc3ccc(S(=O)(=O)N4CCc5ccccc5C4)cc3c21,1.35,.
O=C(c1ccc(N2C(=O)CCS2(=O)=O)cc1)N1CCc2ccccc21,0.01,-1.6
Cc1cc(C)n2nc(NCc3ccc(Cl)cc3)nc2n1,2.42,-2.1
COc1ccc(NS(=O)(=O)c2ccc(-c3ccc(=O)[nH]n3)o2)cc1Cl,1.35,.
COc1ccc(CCN[C@H]2CS(=O)(=O)C[C@@H]2S(=O)(=O)c2ccc(F)cc2)cc1OC,1.15,-1.5
CC(C)Cc1nnc(NC(=O)c2cc(-c3cccs3)on2)s1,2.28,-1.48
CCOC(=O)c1ccc2c(c1)N(Cc1cc(=O)n3ccccc3n1)C(=O)c1ccccc1S2,0.88,.
OCCCNC(=S)Nc1ccc2nc(-c3ccccc3)c(-c3ccccc3)nc2c1,.,5.86*
CSc1ccc(C2CC(=O)N3CN(c4ccccc4)CSC3=C2C#N)cc1 (configuration not stated),-1.24,4.07*
Cc1cc(NC(=O)N2CCn3cccc3C2C(C)C)ccc1Br (configuration not stated),-0.08,.
CCc1ccccc1NC1=NS(=O)(=O)C(c2ccc(F)cc2)=C1C,-0.76,.
CCCn1cc(S(=O)(=O)c2ccc(C)cc2)c(=O)c2cc(F)c(N(CC)CC)cc21,-0.61,.
O=C(C1CCC(CNc2c(N3CCCCC3)c(=O)c2=O)CC1)N1CCCCC1 (configuration not stated),.,-1.9
CC(C)N1CNc2nc3ccccc3n2C1,-0.99,-0.04
Cc1nc2ccccc2n1CCNS(=O)(=O)c1ccc2c(c1)oc(=O)n2C,3.26*,.
Cc1c2c(=O)n(-c3ccccc3)[nH]c2cc(=O)n1CCc1c[nH]c2ccccc12,0.05,0.41
COc1ccc(-c2cnc3c(-c4ccccc4)c(C)nn3c2N)cc1OC,0.16,0.13
CN1C(=O)NC(c2cccc(C(F)(F)F)c2)C2=C1CC(C)(C)CC2=O (configuration not stated),.,3.68
CCOc1ccc(S(=O)(=O)Nc2ccc(-c3ccc(S(C)(=O)=O)nn3)cc2)cc1,-1.1,.
O=C1CC(Nc2ccc(N3CCCCC3)cc2)C(=O)N1c1ccccc1F (configuration not stated),-2.24,-1.27
Cn1c(Cc2ccsc2)nnc1SCC(=O)NNC(=O)c1ccc(Cl)cc1,.,-2.53
O=C1CC(Nc2ccc(N3CCOCC3)cc2)C(=O)N1c1ccc(F)cc1 (configuration not stated),0.62,-1.05
Cc1c(CO)c2ccccc2n1Cc1ccc(Cl)cc1,1.79,-1.66
CCOc1cc(-c2noc(CCCC(=O)NC(C)(C)C)n2)cc(Br)c1OC,-1.51,-0.68
Cc1ccc(C2C(C#N)=C(N)Oc3nc[nH]c(=O)c32)cc1 (configuration not stated),-0.13,0.92
CN1CCN(C(=O)c2cc3c(=O)n(C)c4cc(Cl)ccc4c3s2)CC1,-1.59,-1.84
O=S(=O)(c1ccccc1)c1nnn2c1nc(NC1CCCCC1)c1sccc12,0.77,.
Cn1c(C(=O)N2CCN(c3ccccc3)CC2)c(N2CCCC2=O)c2cc(F)ccc21,0.41,.
NCCNC(=O)Cc1ccc(O)cc1,.,-0.63
CCN(CC)C(=O)CSc1nnc2c3ccccc3nc(-c3ccccc3)n12,2.09,.
O=c1c(Cl)c(N2CCN(c3ccccc3F)CC2)cnn1-c1nc2ccccc2s1,0.65,-0.94
CN(C)CCCNc1cc(N2CCN(c3ccccn3)CC2)c2noc3c2c1C(=O)c1ccccc1-3,7.24*,1.18
CC1=C(C(=O)OCCc2ccccc2)C(c2cc3c(cc2Cl)OCO3)C2=C(CCCC2=O)N1 (configuration not stated),1.26,-2.55
CCN(C(=O)Nc1cn(CC(C)C)c(=O)c2ccccc12)c1cccc(Cl)c1,-0.18,.
Cc1nn(C)c(C)c1Sc1nccc(-c2cccnc2)n1,.,0.06
O=C(c1cccs1)C1C(c2ccccc2)C([N+](=O)[O-])C2C=Cc3ccccc3N21 (configuration not stated),-0.64,-1.47
O=C1c2ccccc2S(=O)(=O)N1Cc1nnnn1-c1ccccc1,2.08,-1.27
COCCN(Cc1cccs1)S(=O)(=O)c1ccc(-c2ccc(=O)[nH]n2)s1,0.52,.
O=C(CSc1nc2ncccc2o1)NC1CCCCC1,1.02,.
CCOC(=O)C(=O)N(O)C(C[N+](=O)[O-])c1ccccc1 (configuration not stated),.,0.16
CCc1ccc(-c2[nH]nc3nc(-c4ccc(O)c(OC)c4)cc(C(=O)O)c23)cc1,3.51,.
COCCNC(=O)CCCn1c(=O)[nH]c2ccccc2c1=O,.,-0.62
CCc1nn(CC(=O)NC(C)CCc2ccco2)c(=O)c2cc3sc(C)cc3n12 (configuration not stated),0.99,-0.74
O=C(Cn1cnc2ccccc2c1=O)Oc1cccc(NC2=NS(=O)(=O)c3ccccc32)c1,.,-2.13
Cc1c(Cl)cccc1N1C(=O)c2ccncc2C1=O,0.19,.
Cc1cccc(NC(=O)Nc2sc3nc4n(c(=O)c3c2C)CCC(C)CC4)c1C (configuration not stated),0.17,-2.62
CCCNC(=O)c1oc2ccc3c(c2c1C)C(=O)CC1(CCCCC1)O3,2.56,-0.03
CS(=O)(=O)/C(C#N)=C/Nc1cnccn1,.,-2.57
O=C(CCCC1=NS(=O)(=O)c2ccccc2N1)N(Cc1ccccc1)Cc1ccccc1,1.94,-1.73
Cc1[nH][nH]c(=O)c1C(c1ccc(O)cc1)c1c(C)[nH][nH]c1=O,2.14,-0.99

# Screening results: PubChem BioAssay, Center for Chemical Genomics, University of Michigan
